Screens from PubChem.
PMP22 txn: modulators of PMP22 gene transcription in S16 Schwann cells; S16 Pmp22-F2sN Schwann cells (luciferase reporters placed in the Pmp22 gene), FLuc/NLuc coincidence luminescence, 24 h; Potency, µM (titrated, usually from 57.5 µM), for the others: at the top dose activity change, negative = inhibition, most hits filed as inhibitors; 2% of 43,000 active; active = clear falling dose curves in both reporters; inconclusive = both reporters move, but less clearly or upward; inactive = either reporter flat; the % is the NLuc reporter signal; further: on the % scale 0 is the no-effect control and ±100 the full control effect; some results filed as inactive show a strong effect at the top dose
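Reporter cells (S16 Pmp22-F2sN, 500–1,000 per well) exposed to compounds for 24 h, 37C, 5% CO2; lysis with FLuc read after 10 min, then Stop&Glo and NLuc read after 10 min.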
HTT promoter inh: inhibitors of huntingtin promoter activity; HEK293 HTT promoter firefly luciferase reporter (activity 0% = vehicle and -100% = no light), 24 h; 0.93% of 48,000 active; AID 1508623; Potency, µM (titrated, usually from 57.5 µM), inactives show top-dose activity change, negative = inhibition, most hits filed as inhibitors; active means well fitted inhibition curve with a large enough effect; inconclusive means small, poorly fitted or top-dose-only effect; inactive means no such curve, though single readings can be large or run the other way; further: nearly all actives have a fitted effect of over 50% in size
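HEK293 Fluc reporter, 2,500 cells/well, 24 h pre-culture; cpds up to 57.5 uM final, 24 h 37 degrees C; Dual-Glo, 10 min RT; normalized vehicle = 0%, zero RLU = -100%.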
* = called active by the depositor; u = inconclusive; x = no result given; [ ] = remark or other dose. Potency means the concentration at half of the fitted maximal effect. This is a subset. The share of hits here may be higher or lower than overall.

Values in the order: PMP22 txn, HTT promoter inh
- COc1ccc(C2CC(=O)c3c([nH]c(C(=O)OC4CCCCCC4)c3C)C2)cc1 (configuration not stated)
→ -52.1%, -18.9%
- Cc1ccc2[nH]c(CSc3nnc(NC(=O)c4ccccc4F)s3)cc(=O)c2c1
→ u, u
- COc1ccc(Cl)cc1NS(=O)(=O)c1c(C)[nH]c(=O)[nH]c1=O
→ 36.9%, -0.2%
- CC(C)Cn1cc(NC(=O)Nc2cccc(C(F)(F)F)c2)c2ccccc2c1=O
→ u, u
- CC(C)Oc1ccc(CNC(=O)c2cnc3sc(N4CCCCCC4)nn3c2=O)cc1
→ u, 14.4%
- CCCn1cc(S(=O)(=O)c2cccc(Cl)c2)c(=O)c2cc(F)c(N3CCCC3)cc21
→ u, u
- COCCNC(=O)CSc1nc2cc3c(cc2c(=O)n1CCCC(=O)NCCc1ccc(OC)c(OC)c1)OCO3
→ 29.0%, -11.5%
- COc1ccc(Cc2nc3ccccc3n2Cc2ccccc2C)cc1
→ u, -15.2%
- O=C(Nc1ccc2oc(-c3ccc4ccccc4c3)nc2c1)c1cc(Br)ccc1Cl
→ u, 15.8%
- Cc1oc2ncn(CC(C)C)c(=O)c2c1C(=O)NCCc1ccccc1
→ u, -5.1%
- CCOc1ccc(CNC(=O)c2ccc3nc(Cc4ccc(OC)cc4)oc3c2)cc1OC
→ u, u
- Cc1cccc(Cn2c(SCc3ccc(C(=O)NC4CCCC4)cc3)nc3ccncc32)c1
→ u, -26.5%
- CC1CCN(S(=O)(=O)c2ccc3c(c2)c(=O)c(C(=O)NCc2ccc(Cl)cc2)cn3C)CC1
→ -18.6%, -20.4%[11.5 µM]
- O=C(CN1C(=O)C(c2ccc(F)cc2)=NC12CCCCCC2)Nc1ccccc1Cl
→ -15.7%, u
- O=C(Nc1ccc(Cl)cc1)c1ccc2c(c1)N(Cc1ccccc1)C(=O)c1ccccc1S2(=O)=O
→ 3.4%, -23.6%
- CCCCCCCCCCCCCCCCCCO
→ x, 10.7%
- COc1ccc(NC(=O)Cn2c(=O)n(-c3ccc(OC)cc3)c(=O)c3sc4ccccc4c32)cc1
→ u, 5.8%
- Cc1ccc(-n2[nH]c(C)c(N=Nc3cccc(-c4cccc(C(=O)O)c4)c3O)c2=O)cc1C
→ x, 1.1%
- CN(Cc1ccccc1)S(=O)(=O)c1nnc(NC(=O)c2cccc(Cl)c2)s1
→ -50.4%, -9.1%
- COc1ccc(C(=O)NCC(c2cccs2)S(=O)(=O)c2cccs2)cc1 (configuration not stated)
→ -7.3%, -10.1%
- CC1CCN(S(=O)(=O)c2ccc3c(c2)oc(=O)n3CC(=O)O)CC1
→ 4.4%, -2.3%
- CCOC(=O)c1cc2c(=O)n3ccccc3nc2n(CC(C)C)c1=NC(=O)COc1ccc(Cl)cc1
→ 16µM*, -1.5%
- CC(=O)c1ccc(NC(=O)CN2C(=O)c3cccnc3Sc3ccccc32)cc1
→ -3.5%, 26.0%
- Cc1nn(S(=O)(=O)c2ccc(C(C)(C)C)cc2)c(C)c1S(=O)(=O)N1CCCCCC1
→ 0.8%, -3.5%
- CCCc1cc(=O)n2[nH]c(NC(=O)c3ccc(C(C)(C)C)cc3)nc2n1
→ u, -24.0%
- CCCCC(Sc1nc2cc3c(cc2c(=O)n1CCCC(=O)NCc1ccc(OC)cc1)OCO3)C(=O)OCC (configuration not stated)
→ -12.1%, u
- CCCn1c2ccccc2c2cnn(CC(=O)N3CCN(c4ccccc4F)CC3)c(=O)c21
→ -16.5%, 3.5%
- Cc1cccc(N2CCN(C(=O)c3ccc4c(c3)N(Cc3ccccc3)C(=O)c3ccccc3S4(=O)=O)CC2C)c1 (configuration not stated)
→ u, -27.9%
- O=C(NCc1ccccc1Cl)C1CCN(C(=O)N2CCOc3ccccc32)CC1
→ 0.2%, -4.4%
- COc1cc(-c2ccno2)ccc1S(=O)(=O)N1CCN(c2ccc(C(C)=O)cc2)CC1
→ u, u
- CC(Oc1ccccc1F)C(=O)NCC1(N2CCOCC2)CCCCC1 (configuration not stated)
→ -8.5%, -22.9%
- Cc1cc(C)c(NC(=O)Cn2c(=O)n(CCC(=O)N3CCc4ccccc4C3)c(=O)c3ccccc32)c(C)c1
→ u, -14.2%
- Cc1cccc(NC(=O)CSc2nnc(CNC(=O)c3cccc(C)c3)n2-c2ccccc2)c1
→ 3.0%, -10.3%
- Cc1ccc(C)c(NC(=O)c2ccc(=O)n(Cc3ccc(F)cc3)c2)c1
→ u, u
- CCOc1ccccc1CNC(=O)Cn1c(=O)c2cccn2c2ccc(F)cc21
→ u, -2.7%
- CC1CCc2c(sc(NC(=O)c3ccccc3)c2C(=O)Nc2ccccc2)C1 (configuration not stated)
→ u, -5.4%
- CC(=O)c1cccc(NC(=O)c2c(N3CCCC3=O)c3cc(F)ccc3n2C)c1
→ -12.6%, u
- CCOc1ccc(NS(=O)(=O)c2ccc3[nH]cc(C(=O)N4CCCC4)c(=O)c3c2)cc1
→ 6.0%, 10.1%
- Cc1ccc(N2CCN(c3nc4ccc(C(=O)c5ccccc5)cc4n4cnnc34)CC2)c(C)c1
→ -7.7%, -17.8%
- CCOc1ccccc1-c1noc(CSc2nnc(-c3ccccc3)n2-c2ccc(OC)cc2)n1
→ u, u
- COc1ccc(NC(=O)c2oc3ccc(S(=O)(=O)N4CCCCC4)cc3c2C)cc1Cl
→ u, -22.7%
- CCOCCCNC(=O)c1cn(CC)c2ccc(S(=O)(=O)N3CCc4ccccc4C3)cc2c1=O
→ u, -7.6%
- COC(=O)c1ccc2c(=O)n(CCCCCC(=O)NCc3ccc(OC)cc3)c(=O)[nH]c2c1
→ -18.5%, -17.1%
- Cc1ccc(CCNC(=O)c2cc3n(n2)CCCN(Cc2ccc(C)cc2)C3=O)cc1
→ -9.8%, u
- CCc1ccc(-c2cn3c(n2)sc2cc(C(=O)NCC(C)c4ccccc4)ccc23)cc1 (configuration not stated)
→ -43.2%, -7.4%

Filtered by structure, the compounds so far with an aryl thioether with sulfur outside any ring (6)
Values in the order: PMP22 txn, HTT promoter inh
- Cc1ccc2[nH]c(CSc3nnc(NC(=O)c4ccccc4F)s3)cc(=O)c2c1
→ u, u
- COCCNC(=O)CSc1nc2cc3c(cc2c(=O)n1CCCC(=O)NCCc1ccc(OC)c(OC)c1)OCO3
→ 29.0%, -11.5%
- Cc1cccc(Cn2c(SCc3ccc(C(=O)NC4CCCC4)cc3)nc3ccncc32)c1
→ u, -26.5%
- CCCCC(Sc1nc2cc3c(cc2c(=O)n1CCCC(=O)NCc1ccc(OC)cc1)OCO3)C(=O)OCC (configuration not stated)
→ -12.1%, u
- Cc1cccc(NC(=O)CSc2nnc(CNC(=O)c3cccc(C)c3)n2-c2ccccc2)c1
→ 3.0%, -10.3%
- CCOc1ccccc1-c1noc(CSc2nnc(-c3ccccc3)n2-c2ccc(OC)cc2)n1
→ u, u

Next structures:
Compound,PMP22 txn,HTT promoter inh
CSc1cccc(NC(=O)C2CCN(c3ncnc4c3nc3n4CCCCC3)CC2)c1,-11.2%,-25.5%
Cc1ccc(-n2nnc(C(=O)Nc3cc(F)ccc3F)c2C)cc1F,-2.2%,75.5%[activator]
Cc1nc2sc(C)c(C)n2c(=O)c1S(=O)(=O)N1CCN(c2ccccc2F)CC1,u,0.8%
Cc1ccc2occ(CC(=O)Nc3ccc(S(=O)(=O)N4CCC(C)CC4)cc3)c2c1,u,u
COc1ccc(S(=O)(=O)N2CCC(Oc3ccc(-n4cnnn4)cc3)CC2)cc1,u,-31.2%
COc1ccc(OC)c(NC(=O)N2CC3CCCN3c3ccccc32)c1 (configuration not stated),u,u
O=C(Cn1cnc2onc(-c3ccc(F)cc3)c2c1=O)N1CCN(c2ccc(F)cc2)CC1,-64.4%,u
CC(C)c1nc2ccc(C(=O)Nc3ccccc3F)cc2o1,u,u
CCOc1ccc(-c2cc(C(=O)NCCc3ccc(Cl)cc3)c3ccccc3n2)cc1,-3.6%,-15.6%
NC(=O)c1c(NC(=O)c2nc(SCc3ccccc3F)ncc2Cl)sc2c1CCCC2,-33.7%,-5.5%
COc1ccc(N(CC(=O)NCCc2ccccc2)S(=O)(=O)c2ccccc2)c(OC)c1,u,-22.1%
CCNC(=O)c1cnc2sc(N3CCCCCC3)nn2c1=O,-4.1%,32.1%
COC(=O)c1ccccc1NC(=O)c1cn2c3c(ccc(Cl)c3c1=O)OC(C)C2 (configuration not stated),-14.2%,-8.8%
O=C(NCc1ccccc1Cl)C(=O)NCC(c1ccc2c(c1)OCO2)N1CCOCC1 (configuration not stated),u,-29.5%
O=C(Cn1c(=O)nc(-c2ccccc2F)c2cc(Cl)ccc21)NCCCc1ccccc1,-8.9%,-15.3%
O=C(NCCc1csc2nc(-c3ccccc3F)nn12)c1ccco1,3.4%,-37.8%
Cc1cccc(NC(=O)C(NS(=O)(=O)c2cccc3nsnc23)c2ccccc2)c1C (configuration not stated),-13.5%,-15.3%
Cc1nc(C)c(-c2ccc(SCC(=O)Nc3cccc(C)c3C)nn2)s1,u,-11.3%
Cc1cc(NC(=O)CCCn2c(C)c3cnn(-c4ccccc4)c(=O)c3c2C)ccc1Br,u,u
CC(C)c1ccc(-c2noc(SCC(=O)N(C)c3ccc(F)cc3)n2)cc1,-51.4%,u
O=C(CCn1c(=O)c2ccccc2n(Cc2ccc(F)cc2Cl)c1=O)NCc1ccc2c(c1)OCO2,u,-14.4%
CCCN(C(=O)c1cc2c(s1)-c1ccccc1OC2)c1ccccc1F,u,-18.9%
COc1ccc(NC(=O)CN2C(=O)C(c3ccccc3)=NC23CCC(C)CC3)cc1Cl (configuration not stated),u,u
COc1ccc(Cl)cc1NC(=O)C1CCCN(S(=O)(=O)c2ccc3c(c2)CCCC(=O)N3)C1 (configuration not stated),u,-16.7%
Cc1ccccc1Cc1c(C)nc2nc(SCC(=O)N(C)c3ccccc3)nn2c1C,u,-18.8%

Some of these compounds in order of molecular weight, ascending:
Compound,PMP22 txn,HTT promoter inh
Cc1nc(C)c(-c2ccc(SCC(=O)Nc3cccc(C)c3C)nn2)s1,u,-11.3%
COC(=O)c1ccccc1NC(=O)c1cn2c3c(ccc(Cl)c3c1=O)OC(C)C2 (configuration not stated),-14.2%,-8.8%
O=C(CCn1c(=O)c2ccccc2n(Cc2ccc(F)cc2Cl)c1=O)NCc1ccc2c(c1)OCO2,u,-14.4%

The results go on.
Compound,PMP22 txn,HTT promoter inh
COc1ccc(/C=C/C(=O)Nc2ccc3nc4c(c(Nc5ccccc5OC)c3c2)CCCC4)cc1,u,u
Cc1ccc(OCc2cc(=O)n3c4c(sc3n2)CCCC4)c(C)c1,-7.7%,-0.4%
O=C(NCc1ccc2c(c1)CCN2C(=O)c1ccc(Cl)cc1)c1cccc(F)c1,7.1%,-9.5%
O=C(NCc1ccccc1Cl)C1CCC(CNS(=O)(=O)c2ccc(Br)s2)CC1 (configuration not stated),-40.4%,-7.9%
Cc1ccc(NC(=O)CN2C(=O)CCc3cc(S(=O)(=O)N4CCCCC4)ccc32)cc1N(C)C,18.6%,u
CC(C)OCCCN1C(=O)c2[nH]nc(-c3ccccc3O)c2C1c1cccc(OCc2ccccc2)c1 (configuration not stated),u,u
CCCc1nn2c(=O)cc(COC(=O)c3ccc(NC(=O)COc4ccc(F)cc4)cc3)nc2s1,-13.7%,-29.9%
Clc1ccc(-c2cn3ncsc3n2)cc1,7.2%,11.0%
CCCCCOc1ccc(NC(=O)Cc2csc(C)n2)cc1,-1.1%,-6.5%
CCOC(=O)c1c(NC(=O)c2cc(OC)c(OC)c(OC)c2)sc2c1CCCC2,-7.5%,8.7%
COc1ccc(CNC(=O)Cc2ccc(NC(=O)N3CCSc4ncccc43)cc2)cc1OC,-30.2%,u
COc1ccccc1-n1c(-c2ccc(C)cc2)cn2c3c(=O)n(C)c(=O)n(C)c3nc12,u,u
CC(C)C(=O)OC1=CN(Cc2ccccc2)S(=O)(=O)c2ccccc21,15.2%,-11.2%
Cc1ccccc1NC(=O)c1cc2c([nH]c1=O)CC(C)(C)CC2=O,26.7%,74.6%[activator]
CCOC(=O)c1cccc(NC(=O)N2CCC(CN3CCCCCC3)CC2)c1,-36.2%,-8.3%
CCc1ccc(C2CC(=O)NC(NC(=O)c3ccc(C(C)(C)C)cc3)=N2)cc1 (configuration not stated),u,6.7%
COc1ccc(CCNC(=O)c2c(C)oc3ncn(CC(C)C)c(=O)c23)cc1OC,u,0.0%
Cc1cc(=O)[nH]c2nnc(SCc3cccc(C(F)(F)F)c3)n12,-10.5%,-3.7%
COc1ccc(C(=O)Nc2cccc(C(=O)OCc3cc(=O)n4nc(C5CC5)sc4n3)c2)cc1,-10.0%,-30.3%
CCOc1ccc2c(c1)c(=O)c(S(=O)(=O)c1ccc(CC)cc1)cn2CC,-2.3%,u
COc1ccc(CCNC(=O)CSCc2nc(-c3cccc(C)c3)oc2C)cc1OC,-38.2%,u
Cc1c(C(=O)Nc2cccc(Cl)c2)oc2ccc(S(=O)(=O)N(C)C3CCCCC3)cc12,-20.0%,u
Cc1cccn2c(Nc3ccccc3)c(-c3cccs3)nc12,-16.7%,-17.0%
CCOc1cc(-c2nnc(SCC(=O)NCc3ccc(C)cc3)nc2-c2ccc(OC)c(OCC)c2)ccc1OC,-25.5%,-11.3%
COc1ccc(-c2nc3c4ccccc4n(CC(=O)N4CCN(c5ccccc5OC)CC4)c(=O)n3n2)cc1,1.8%,-11.0%
